Screening data from PubChem.
NPYLR7 ag: agonists of mosquito NPYLR7 receptor, primary screen, cell-based, Aedes aegypti, calcium fluorescence, mosquito biting behavior. activation, % at 10 µM. HEK293T NPYLR7/Galpha15, GCaMP6s calcium fluorescence. AID 1259423, 2018. Aedes aegypti neuropeptide Y-like receptor 7 (NPYLR7). 0.15% of 270,000 active; in the data active = activation above about 40%;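 note: 0% = vehicle and 100% = reference agonist at the receptor; some compounds past the cut are filed as inactive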
NPYLR7 ag max-min: recorded beside NPYLR7 ag, whose call it bears; activation, %; measured here: Max-Min RFU normalised activation; some inactives read as strong as hits;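 span of the calcium signal over five minutes; 0% = vehicle and 100% = native peptide agonist; compound fluorescence can raise it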
Starred values were filed as active, the others as inactive.

| structure | NPYLR7 ag | NPYLR7 ag max-min |
| --- | --- | --- |
| CCc1nc2ccc(C(=O)N3CCN(S(=O)(=O)CC)CC3)cn2c1N(CC)CCN(C)C | -4 | -6 |
| CC(=O)c1c(C)oc2ccc(NS(=O)(=O)c3cc([N+](=O)[O-])ccc3C)cc12 | -4 | -7 |
| COc1ccc(Cl)cc1NS(=O)(=O)c1ccccc1Cl | 0 | 5 |
| O=C(C1c2ccccc2Oc2ccccc21)N(C(=O)N1CCCCC1)c1ccccc1 | 12 | 7 |
| CC1(C)CC(=O)C2C(=Nc3ccccc3NC2c2ccc3c(c2)OCO3)C1 (centres undefined) | -2 | -4 |
| O=S1(=O)CC2N=C(Nc3ccccc3Cl)SC2C1 (centres undefined) | -1 | -1 |
| COc1ccc(C2C(C(=O)OC(C)C)=C(C)N=c3sc(=Cc4ccc(C)o4)c(=O)n32)cc1 (centres undefined) | -4 | -7 |
| c1cc2c(cc1-c1cnnc(NCCCN3CCOCC3)n1)OCO2 | -8 | -9 |
| O=C(NCC1CN(Cc2ccccc2)CCO1)c1ccoc1 (centres undefined) | 2 | -1 |
| CN1CCNC(=O)C12CCN(C(=O)C1=CC(=O)CC(C)(C)O1)CC2 | 17 | 6 |
| COCC(O)CN(Cc1cccc(Cl)c1)CC1CC(c2ccccc2F)=NO1 (centres undefined) | -3 | 2 |
| C=C(C)COc1ccccc1C(=O)NCCc1nc(C)c(C)s1 | 4 | -5 |
| O=C(c1ccc(Nc2c(Oc3cccc(Cl)c3)cnn(-c3ccc(F)cc3)c2=O)cc1)N1CCOCC1 | 11 | 8 |
| CC1(C(=O)NS(=O)(=O)c2ccccc2Cl)CCN1C(=O)CC1CCCCC1 (centres undefined) | 2 | -1 |
| c1ccc2c(-c3cnn4cc(-c5ccc(N6CCNCC6)cc5)cnc34)ccnc2c1 | 1 | -7 |
| COc1ccccc1-c1nc(SC(C(C)=O)C(=O)N(C)C)c2c(=O)n(C)c(=O)n(C)c2n1 (centres undefined) | -5 | -9 |
| CCCCNC(=O)c1cc(NC(=O)COC)c2c(c1)ncn2CCc1ccccc1 | 2 | -2 |
| O=c1c(Cl)c(NCc2nnc3ccccn23)cnn1-c1ccccc1 | 0 | 9 |
| CCC(=O)c1ccc(OCC(=O)N2CCNCC2C(=O)NC2CC2)cc1 (centres undefined) | -2 | -6 |
| O=c1c2cnc3ncnn3c2ccn1CCCN1CCOCC1 | 4 | 9 |
| CC(C1CC1)N(C)C(=O)c1cccc(NC(=O)c2cccs2)c1 (centres undefined) | -1 | -1 |
| O=C(NCC1(Cn2cccn2)CC1)c1ccc2scnc2c1 | -1 | -1 |
| NC(=O)CN1CCC(Nc2ncnc3c2cnn3-c2ccc(F)cc2)CC1 | -2 | -1 |
| CCc1nnsc1C(=O)N1CC[C@@H](c2ccc3ccccc3c2)[C@H](O)C1 | 3 | 8 |
| CCc1ccc(-n2c(C)c(C)n3c4c(=O)n(CCN5CCCCC5)c(=O)n(C)c4nc23)cc1 | 5 | 3 |
| Cc1cccc(OCCn2c(SCC(N)=O)nc3ccccc32)c1 | -4 | -9 |
| COC(=O)C[C@H]1C(C)(C)C(=O)[C@@H]2CC3=C(CC[C@]4(C)C3=CC(=O)O[C@H]4c3ccoc3)[C@@]1(C)C2=O | -10 | -12 |
| Cc1noc(-c2cccc(C(F)(F)F)c2)c1C(=O)NCc1cccs1 | 4 | 15 |
| O=C(CSc1nc(=O)n(CCCO)c2c1CCCC2)NC1CCCC1 | -5 | -13 |
| CCOC(=O)c1c(NC(=O)CCN2C(=O)c3cccc([N+](=O)[O-])c3C2=O)sc(C(C)=O)c1C | -4 | -7 |
| CCN1CCCC1CNS(=O)(=O)c1c(C)c(C)cc(C)c1C (centres undefined) | -6 | -9 |
| Cc1ccc(S(=O)(=O)N(CC(=O)NCc2ccc3c(c2)OCO3)C(=O)N2CCN(C)CC2)cc1 | 8 | 5 |
| CCOC(=O)N1CCN(C(=O)c2cc3ccccc3cc2O)CC1 | 22 | 10 |
| Oc1oc(-c2ccc(Br)cc2)nc1C=Nc1ccccc1I | -2 | -5 |
| COc1cc(NC(=O)CCC2CCCN(C(=O)CN3CCCC3=O)C2)cc(OC)c1 (centres undefined) | 1 | 1 |
| COc1ccc2cc(C(=O)NC(C)=O)c(=Nc3ccc(F)cc3)oc2c1 | -9 | -12 |
| Fc1ccccc1N=c1oc2ccccc2cc1-c1nc2ccccc2[nH]1 | -4 | -8 |
| O=C(/C=C/C(=O)Oc1ccccc1C(=O)O)Oc1ccccc1C(=O)O | -9 | -14 |
| C1Cc2nc(C3CC3)nc(Sc3nnc(N4CCCC4)s3)c2C1 | 0 | -1 |
| Cc1ncc(-c2c(-c3ccccc3)ncn2CCN(C(C)C)C(C)C)n1C | 0 | 7 |
| O=C1C(=O)N(CCCN2CCOCC2)C(c2ccncc2)C1=C(O)c1ccc(Cl)cc1 (centres undefined) | -1 | 0 |
| Cc1ccc(N2CCN(S(=O)(=O)c3ccccc3Cl)CC2)cc1Cl | 2 | -3 |
| O=C(Cn1cc(Cl)c([N+](=O)[O-])n1)NCCC1=CCCCC1 | 2 | 0 |
| C[C@@H]1CN(C2(C(=O)NCCn3cccn3)Cc3ccccc3C2)C[C@H](C)O1 | 18 | 10 |
| CN(C(=O)C1CC1c1ccccc1)C1CCN(c2ccccc2)C1=O (centres undefined) | 4 | 1 |
| COc1ccccc1OCCN1CCC(C(=O)NC(c2ccccc2)c2ccc3ccccc3n2)CC1 (centres undefined) | 5 | -2 |
| O=C(c1cccc(Nc2c(Oc3ccc4c(c3)CCC4)cnn(-c3cccc(Cl)c3)c2=O)c1)N1CCOCC1 | 3 | 9 |
| CNc1nc(C)c(C(=O)N(C)Cc2ccncc2C)s1 | 9 | -8 |
| CCCNC(=O)C1CCCN1C(=O)NC12CC3CC(CC(C3)C1)C2 (centres undefined) | 0 | 3 |
| CC(C)N1C[C@@H](COc2ccc(-c3ccccc3)cc2)[C@H](c2ccccc2)S1(=O)=O | 2 | 8 |
| O=C(CSc1nc2[nH]ncc2c(=O)[nH]1)NCc1ccccc1 | -3 | -5 |
| Cc1cccc(Nc2nc3nonc3nc2N/N=C\c2ccc(-c3ccc(Cl)c([N+](=O)[O-])c3)o2)c1C | -10 | -14 |
| CCCN1CCC(N(C)C(=O)C2=Cc3cccc(OC)c3OC2)CC1 | 17 | 19 |
| Cc1ccc(-c2onc3c2CCCC3)cc1NC(=O)c1snnc1C | 4 | 18 |
| O=C(Nc1cnc[nH]1)c1cccc2c1-c1ccccc1C2 | -4 | -7 |
| COc1cccc(-n2cc(CN(C)C(=O)c3nn(C)c4c3CCCC4)cn2)c1 | -3 | 4 |
| CC(C)c1ccc(C(=O)N2CCN(CCCO)CC2)cc1 | 5 | 1 |
| C=CCN1C(=O)/C(=C\c2ccc([N+](=O)[O-])o2)SC1=S | -11 | -17 |
| Cc1cc(C(=O)N2CCC2(C)C(=O)O)c(C)o1 (centres undefined) | -1 | -5 |
| COc1ccccc1C(=O)Nc1c(-c2cc(C)cc(C)c2)nc2ccccn12 | -2 | 4 |

(further entries)
| structure | NPYLR7 ag | NPYLR7 ag max-min |
| --- | --- | --- |
| Cc1[nH]c(=O)[nH]c(=O)c1CCc1nnc(SCC(=O)C(C)(C)C)o1 | -4 | -11 |
| CCOCCOc1nc(-c2cccs2)n(-c2ccc(N)cc2)n1 | -6 | -13 |
| CCC(C(=O)N1CCN(CC(OCc2ccc(C#N)cc2)c2cccc(OC)c2)CC1)c1ccccc1 (centres undefined) | 0 | -1 |
| O=C(CN1C(=O)NC2(CCCC2)C1=O)N1CCN(C(=O)c2cccs2)CC1 | 9 | 5 |
| O=C(Nc1ccc(Cl)c(F)c1)c1ccnc(C2CC2)n1 | 3 | 2 |
| O=C1CSC2=NCN(c3ccc(Br)cc3)CN12 | 10 | 2 |
| C=CCn1c(SCC(=O)Nc2ccc(O)cc2)nc2sc(CC)cc2c1=O | -11 | -12 |
| COc1ccc(C(=O)n2nc(C)c(Sc3ccccc3)c2C)cc1 | 9 | 9 |
| COC(=O)Cn1c(=O)c2c(nc3n2CC(C)CN3c2ccc(C)c(C)c2)n(C)c1=O (centres undefined) | 0 | -4 |
| Cc1ccc(-c2nnc(SCC(=O)NC(C)C(C)C)o2)cc1 (centres undefined) | -5 | -10 |
| Clc1ccccc1CN1CCOC(CSc2nnc(NC3CC3)s2)C1 (centres undefined) | 5 | 1 |
| CCOc1ccccc1NC(=O)N1CCSC1c1ccc(OC)cc1OC (centres undefined) | 6 | 8 |
| Cc1cc(C2=NNC(=NC(C)C)SC2)c(C)s1 | 7 | 5 |
| COc1cc(OC)cc(C(=O)N2CCCC(N3CCN(c4ccccc4C)CC3)C2)c1 (centres undefined) | 1 | 3 |
| CC(C)(CNC(=O)C1CCN(S(=O)(=O)c2ccccc2)CC1)N1CCCCC1 | 2 | 10 |
| CC(C)Sc1nc(N2CCCC2)c2cnn(CCNC(=O)c3ccc(F)cc3)c2n1 | 9 | 7 |
| CC(C)CNC(=O)NC(=O)CSC1=NCCS1 | -1 | -1 |
| COC(=O)c1ccc(C(=O)N(CCCN(C)C)c2nc3c(F)cccc3s2)cc1 | 3 | 2 |
| CC1(C)C/C(=N/O)C2C=C(c3ccccc3)N(c3ccccc3)C2C1 (centres undefined) | 1 | 18 |
| CCN(CC)CCCC(C)NCC1CC2C=CC1C2 (centres undefined) | 7 | 5 |
| CC1CN(c2cc(Oc3ccc(F)c(Cl)c3)ncn2)CCN1C(=O)N(C)C (centres undefined) | -9 | -3 |
| COc1cccc(NC(=O)CCC2CCN(C(=O)c3cc(-c4ccccc4)no3)CC2)c1 | 4 | -1 |
| C/C=C(\C)C(=O)Nc1cccc(-c2cccc(-c3cc(OC)ccc3OC)n2)c1 | 4 | 10 |
| CS(=O)(=O)c1ccc(CC(=O)Nc2nc3c(s2)Cc2ccccc2-3)cc1 | 10 | 5 |
| CN(Cc1cnn(-c2ccccc2)n1)C(=O)NCC1CCCO1 (centres undefined) | -3 | -7 |
| N#CCSc1n[nH]c2nc3ccccc3n12 | 0 | 11 |
| O=C(O)c1csc(Cc2ccc(Cl)cc2)n1 | -2 | -3 |
| Cn1cc(/C=C2\CCCC3=C2OC(=N)C(C#N)C3c2cnn(C)c2)cn1 (centres undefined) | 25 | 15 |
| CCCCNC(=O)c1ccc2nc(CC)c(N(C)Cc3nccn3C)n2c1 | -5 | -9 |
| C(=NNc1nncc2ccccc12)c1ccc(-c2ccccc2)cc1 | 5 | 3 |
| O=c1c2ccccc2nc(SCc2cc(=O)n3ccsc3n2)n1CC1CCCO1 (centres undefined) | 0 | 25 |
| CC(C)NC(=O)CN(CCC1CCCCC1)CC(N)=O | 6 | 4 |
| CSC1=NCC(C)(C)CN1 | 0 | -4 |
| Cn1ccnc1CN(CCO)C(=O)c1cccc2c1OCC2 | 18 | 12 |
| COCC1CN(C2Cc3ccccc3C2)C(=O)c2ccc(C)nc2O1 (centres undefined) | 0 | 8 |
| CCc1csc(CNC(=O)c2ccc(N3CCCC(OC)C3)nc2)n1 (centres undefined) | 4 | -2 |
| COc1cc(CC(=O)N2CCOc3ccc(CN4CCCCC4CO)cc3C2)cc(OC)c1OC (centres undefined) | 18 | 7 |
| COc1cccc(SCC(=O)N2CCNCC2C(=O)NC2CC2)c1 (centres undefined) | 0 | -3 |
| CCc1[nH]c2ccc(CNC(=O)CNS(C)(=O)=O)cc2c1C | 6 | 3 |
| O=C(Cn1ncn2nc(-c3ccc(Cl)cc3)cc2c1=O)Nc1ccccc1F | -11 | -17 |
| CC(NC(=O)CN1CCCCC1CNS(C)(=O)=O)c1ccc(F)cc1F (centres undefined) | -2 | -5 |
| COc1cccc2cc(-c3nnc(NC(=O)Cc4ccc(S(C)(=O)=O)cc4)o3)oc12 | 6 | 3 |
| CCCCC1=NN2C(=N)/C(=C/c3cccc4ccccc34)C(=O)N=C2S1 | -2 | -3 |
| NC(=O)[C@@H]1Cc2ccccc2N1C(=O)CC12CC3CC(CC(Br)(C3)C1)C2 | 7 | 6 |
| COc1ccc2nc(NC(=O)CSc3nc4ccccc4n3C(C)=O)sc2c1 | -7 | -11 |
| CN(C)S(=O)(=O)CCCOc1ccc(N2CCCC2)cc1 | 0 | 11 |
| O=C(NC1CCN(c2ccccn2)CC1)N1CC2(CC2)c2ccccc21 | -3 | -4 |
| Cc1cc(C)n(-c2ccc(Nc3ccc(NC(=O)CC(C)C)cc3)nn2)n1 | -6 | -11 |
| CC(CNC1CCCCC1)OC(=O)c1ccccc1 (centres undefined) | -2 | -6 |
| O=C(c1cc(-c2cccs2)nn1-c1ccc(Cl)c(Cl)c1)N1CCN(Cc2ccccc2)CC1 | -11 | -2 |
| N#CC(C#N)=C1C=C2C=C(N3CCc4ccccc4C3)CCC2CC1 (centres undefined) | 87* | 101* |
| CCCCN(CC(=O)Nc1cc(C(C)(C)C)nn1-c1ccc(C)cc1C)C(=O)c1ccccc1Cl | 4 | 5 |
| CCOC1=NN(c2ccc([N+](=O)[O-])cc2)C(=O)/C1=C\c1ccc(N(C)C)cc1 | 3 | 10 |
| CC1(C)CC(CN2CCN(Cc3cccc(F)c3)CC2)CCO1 (centres undefined) | -5 | -10 |
| N#Cc1cnc(SCc2cc(-c3ccco3)on2)nc1N | 2 | 8 |
| O=C(Cn1ccnc1-c1ccnc(N2CCSCC2)c1)N1CCN(c2ccccc2)CC1 | -8 | -10 |
| CC1(C)CC(=O)C2C(=Nc3ccccc3N(C(=O)Cc3ccccc3)C2c2cccc(F)c2)C1 (centres undefined) | 1 | -1 |
| O=C(NCCc1csc2nc(-c3ccccc3F)nn12)c1ccccc1 | -4 | -5 |
| CC(=O)N1CCN(CCN2C(C)=CC(=C(C#N)C#N)C=C2C)CC1 | -1 | 29 |

Not all compounds are listed. The share of hits here may be higher or lower than overall.
